GCN5L2 inh: inhibitors of human GCN5L2 histone acetyltransferase; GCN5L2 HAT assay, ThioGlo1 CoA-SH fluorescence; Potency, µM (top dose mostly 58.9 µM), for the others: at the top dose activity change, negative = inhibition, hits mostly inhibitors; actives 0.21% (n = 390,000); AID 504327
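Compounds, pin-transferred from DMSO stocks, meet 20nM GCN5L2 for 15 min before the reaction begins with H3(1-25) peptide (75uM) and acetyl-CoA (70uM). Thiol-reactive ThioGlo1 reports CoA release over 20 min at room temperature.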
FEN1 inh: blocks human flap endonuclease 1 | Potency, µM (top dose mostly 114 µM), for inactives: at the top dose activity change, negative = inhibition, hits mostly inhibitors | Recombinant FEN1 flap cleavage, fluorescence, 15 min | AID 588795 | actives 0.35% (n = 390,000); further: nearly all actives have a fitted effect of over 65% in size
Target sequence (P39748 whole entry, looked up): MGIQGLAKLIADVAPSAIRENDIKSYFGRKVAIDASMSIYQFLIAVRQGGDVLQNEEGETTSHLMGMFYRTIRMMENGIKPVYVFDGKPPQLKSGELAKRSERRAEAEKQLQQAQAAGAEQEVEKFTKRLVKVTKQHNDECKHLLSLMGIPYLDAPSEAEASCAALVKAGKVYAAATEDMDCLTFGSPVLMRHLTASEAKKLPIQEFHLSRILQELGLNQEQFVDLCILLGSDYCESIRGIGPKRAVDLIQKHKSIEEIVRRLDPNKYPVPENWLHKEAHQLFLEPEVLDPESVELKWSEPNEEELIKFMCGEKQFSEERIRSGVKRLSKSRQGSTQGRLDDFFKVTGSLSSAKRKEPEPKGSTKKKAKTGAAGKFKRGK
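Concentration–response screening of FEN1 (10 nM): 15 min compound preincubation at room temperature, reaction started with 50 nM substrate and read at 0 and 15 min. Corrected, normalized data were fitted by a four-parameter Hill equation.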
An asterisk follows results filed as active; & = joins results of further samples. The call rests on the fitted dose curve; in most records, active means well fitted curve in the direction sought with a large enough effect; inconclusive means small, poorly fitted or top-dose-only effect, or another doubt; inactive means no such curve, though single readings can be large; an effect the other way counts as inactive or inconclusive. On the % scale 0 is the no-effect control and ±100 the full control effect; potency means the concentration at half of the fitted maximal effect. Some of the compounds tested, and most or all hits are left out here.

`Cc1n[nH]c(=S)n1/N=C/c1ccc(OCc2ccc(Cl)cc2Cl)cc1` gave GCN5L2 inh -1.3% and FEN1 inh 1.6%.
`O=c1[nH]c(=O)n([C@H]2C[C@H](O)[C@@H](CO)O2)cc1C(F)(F)F` gave GCN5L2 inh 1.2% and FEN1 inh -2.9%.
Screening c1ccc(-c2nn3cnnc3c3ccccc23)cc1 returned GCN5L2 inh -6.5% and FEN1 inh 10.6%.
Screening CCC(C)NC(=O)N[C@@H](CCSC)C(=O)O (some centres not stated) returned GCN5L2 inh -1.7% and FEN1 inh -13.1%.
`Cc1cc(C)cc(NC(=O)CS(=O)(=O)c2ccccc2)c1` gave GCN5L2 inh -12.4% and FEN1 inh -11.2%.
`CC1(C)SC(=S)N(NC(=O)Nc2ccccc2)C1N(O)C(=O)Nc1cccc2ccccc12` (configuration not stated) gave GCN5L2 inh -12.2% and FEN1 inh inconclusive.
For C=CCN(CC=C)S(=O)(=O)c1ccc2nc(NC(=O)C3CCCO3)sc2c1 (configuration not stated) the results were GCN5L2 inh -1.2% and FEN1 inh -8.5%.
Screening COc1ccc(N2CCN(C(=O)C3CCN(S(=O)(=O)c4ccc(F)cc4)CC3)CC2)cc1 returned GCN5L2 inh -2.7% and FEN1 inh -18.3%.
Screening O=C(c1ccc2c(c1)N(Cc1ccccc1F)C(=O)c1ccccc1S2=O)N1CCC(Cc2ccccc2)CC1 (configuration not stated) returned GCN5L2 inh -0.5% and FEN1 inh -17.9%.
For O=C(O)c1ccc2c(c1)N(Cc1ccc(F)cc1Cl)C(=O)c1ccccc1S2 the results were GCN5L2 inh -2.7% and FEN1 inh -6.9%.
For CCOC(=O)c1sc2nccc(N(C)C)c2c1N=CN(C)C the results were GCN5L2 inh -9.0% and FEN1 inh -4.9%.
COc1cc2ccccc2cc1C(=O)N(CCN(C)C)c1nc2ccc(Br)cc2s1 was read as GCN5L2 inh -6.5% and FEN1 inh 4.2%.
Screening COc1ccc2nc(SC(C)C(=O)NCC(=O)Nc3ccc(F)c(F)c3F)[nH]c2c1 (configuration not stated) returned GCN5L2 inh -0.1% and FEN1 inh -10.4%.
For O=C(O)c1cccnc1NC1CCCC1 the results were GCN5L2 inh 0.0% and FEN1 inh 1.3%.
CCN(CC)S(=O)(=O)c1ccc(OC)c(NC(=O)CC2CCCC2)c1 was read as GCN5L2 inh -4.5% and FEN1 inh 12.6%.
Screening NC(=O)c1ccc(NC(=O)COC(=O)CCSc2ccccc2)cc1 returned GCN5L2 inh -18.8% and FEN1 inh -6.5%.
For O=C(NCc1ccco1)C(c1ccco1)N(CCc1ccccc1)C(=O)Cn1nnc2ccccc21 (configuration not stated) the results were GCN5L2 inh -0.6% and FEN1 inh -14.1%.
CCS(=O)(=O)N1N=C(c2cccs2)CC1c1cc2cc(C)ccc2nc1Cl (configuration not stated) was read as GCN5L2 inh 0.0% and FEN1 inh 8.4%.
Screening O=C1C(=O)N(Cc2ccco2)C(c2cccc(Cl)c2)/C1=C(\O)c1ccc2c(c1)OCCO2 (configuration not stated) returned GCN5L2 inh -6.3% and FEN1 inh -13.2%.
`Cc1ccc(NC(=O)OCc2cn(-c3ccc(Cl)cc3)nn2)cc1` gave GCN5L2 inh -0.8% and FEN1 inh 7.8%.
`O=C(CN1C(=O)CC(c2ccccc2)Sc2ccccc21)NCC1CCCO1` (configuration not stated) gave GCN5L2 inh -3.0% and FEN1 inh -14.8%.
`O=C(O)c1cc(N2C(=O)C3C4C=CC(C4)C3C2=O)ccc1NCc1cccnc1` (configuration not stated) gave GCN5L2 inh -7.0% and FEN1 inh -11.0%.
Screening Cc1cccc(Cn2c(SCc3ccc(C(=O)NCc4ccccc4)cc3)nc3cccnc32)c1 returned GCN5L2 inh -4.4% and FEN1 inh 12.1%.
Cc1cc(C(=O)Nc2ccc(N3CCOCC3)c3nonc23)ccc1[N+](=O)[O-] was read as GCN5L2 inh 0.1% and FEN1 inh -6.4%.
For COc1ccc(NC(=O)CSc2nc(N)c(C#N)cc2C#N)cc1 the results were GCN5L2 inh -5.0% and FEN1 inh -6.7%.
Screening O=C(c1ccc(Cl)cc1)c1ccccc1C(=O)N1CCOCC1 returned GCN5L2 inh 0.2% and FEN1 inh 2.7%.
Screening CCOc1ccc(NC(=O)CSc2nnc(CNC(=O)c3c(F)cccc3Cl)o2)cc1 returned GCN5L2 inh 0.9% and FEN1 inh -3.6%.
Screening Cc1c(NC(=O)/C=C/c2cn(-c3ccccc3)nc2-c2ccccc2)c(=O)n(-c2ccccc2)n1C returned GCN5L2 inh -2.3% and FEN1 inh 1.3%.
C[n+]1ccccc1/C=C1\Sc2ccccc2N1CCO was read as GCN5L2 inh -24.3% and FEN1 inh 5.8%.
`C/C=C(\NC(C)=O)c1ccccc1` gave GCN5L2 inh -3.2% and FEN1 inh -1.8%.

Reprinted at random: 3 records from the list
`O=C(O)c1cc(N2C(=O)C3C4C=CC(C4)C3C2=O)ccc1NCc1cccnc1` (configuration not stated) gave GCN5L2 inh -7.0% and FEN1 inh -11.0%.
Screening Cc1cccc(Cn2c(SCc3ccc(C(=O)NCc4ccccc4)cc3)nc3cccnc32)c1 returned GCN5L2 inh -4.4% and FEN1 inh 12.1%.
Screening Cc1c(NC(=O)/C=C/c2cn(-c3ccccc3)nc2-c2ccccc2)c(=O)n(-c2ccccc2)n1C returned GCN5L2 inh -2.3% and FEN1 inh 1.3%.

Next section.
O=C(CSc1nnc(CNC(=O)c2ccccc2F)o1)NC1CCCCC1 was read as GCN5L2 inh inconclusive and FEN1 inh -5.6%.
For CCCOc1ccc(CNC(=O)C(NS(=O)(=O)c2cccs2)C(C)C)cc1 (configuration not stated) the results were GCN5L2 inh -3.9% and FEN1 inh 16.9%.
CCOC(=O)c1[nH]c(C)c(C(=O)OCC(=O)NC2CCS(=O)(=O)C2)c1C (configuration not stated) was read as GCN5L2 inh -25.5% and FEN1 inh -5.8%.
For O=C1NC(c2ccncc2)C(C(=O)c2cccs2)C(O)(C(F)(F)F)N1 (configuration not stated) the results were GCN5L2 inh -11.6% and FEN1 inh -3.5%.
Screening COc1ccc(S(=O)(=O)Cc2ccc(C(=O)N3CCN(c4cc(Cl)ccc4C)CC3)o2)cc1 returned GCN5L2 inh -10.7% and FEN1 inh 1.2%.
Screening Cc1cc(C)cc(NC(=O)NCc2noc3ccccc23)c1 returned GCN5L2 inh -25.1% and FEN1 inh 0.5%.
COc1ccccc1Nc1nc(N)nc(CSc2ncccn2)n1 was read as GCN5L2 inh -0.1% and FEN1 inh 4.9%.
`COc1ccc(OC)c(CCNc2ncnc3onc(-c4ccc(F)cc4)c23)c1` gave GCN5L2 inh -1.1% and FEN1 inh -3.5%.
CCCN(C(=O)c1c(-c2ccccc2)noc1C)c1c(N)n(Cc2ccccc2)c(=O)[nH]c1=O was read as GCN5L2 inh 0.7% and FEN1 inh 16.1%.
`Cc1ccc(-n2ncc(-c3nn[nH]n3)c2N)cc1` gave GCN5L2 inh 1.9% and FEN1 inh 3.8%.
`CC(C)C(=O)NNS(=O)(=O)c1ccccc1` gave GCN5L2 inh -7.0% and FEN1 inh 0.1%.
For CCc1ccc2nc(N(Cc3cccnc3)C(=O)c3ccc(C#N)cc3)sc2c1 the results were GCN5L2 inh -10.3% and FEN1 inh -18.5%.
For O=S(=O)(c1ccccc1)N1CCN(CC2CC3C=CC2C3)CC1 (configuration not stated) the results were GCN5L2 inh 0.8% and FEN1 inh 12.6%.
For COc1ccc(S(=O)(=O)Nc2ccccc2C(=O)NC2CC2)cc1NC(C)=O the results were GCN5L2 inh -2.6% and FEN1 inh 11.9%.
O=C1O[C@H]([C@@H](O)CO)C(O)=C1O was read as GCN5L2 inh -18.1%&-4.0% and FEN1 inh 11.8%.
Screening COc1ccccc1NC(=O)C1=C(C)Nc2nc(SCc3ccccc3Cl)nn2C1c1cccnc1 (configuration not stated) returned GCN5L2 inh -0.5% and FEN1 inh 18.2%.
COc1ccc(-n2c(C)cc(/C=N/Nc3nc(N4CCOCC4)nc(N4CCOCC4)n3)c2C)cc1 was read as GCN5L2 inh 1.7% and FEN1 inh -2.3%.
CCCOc1ccc(/C=N/NC(=O)CN2CCCCC2)cc1OCC was read as GCN5L2 inh 3.9% and FEN1 inh 3.9%.
Cc1ccc(-n2c(-c3ccco3)nc3c(cnn3-c3ccccc3C)c2=O)cc1 was read as GCN5L2 inh -1.0%&-0.3% and FEN1 inh -10.9%&0.0%.
Screening Cc1ccc(-n2c(=O)c3ccc(C(=O)NCc4ccco4)cc3n(Cc3ccccc3Cl)c2=O)cc1 returned GCN5L2 inh 3.5% and FEN1 inh 17.7%.
O=C(c1ccco1)N1CCN(C(=S)Nc2ccc(F)cc2)CC1 was read as GCN5L2 inh 3.1% and FEN1 inh 16.9%.
For O=c1cc(Cn2nnc(-c3ccc(Cl)cc3)n2)nc2sccn12 the results were GCN5L2 inh -4.7% and FEN1 inh -15.0%.
Screening COc1c(Cl)cc(C(=O)Nc2ccccc2C(=O)O)cc1Cl returned GCN5L2 inh -5.7% and FEN1 inh 4.4%.
`COc1ccc(C(=O)NCc2nnc(SCC(=O)Nc3nc4ccccc4s3)o2)cc1OC` gave GCN5L2 inh 0.1% and FEN1 inh 3.9%.
CCOc1cc(C(=O)Nc2ccon2)cc(OCC)c1OCC was read as GCN5L2 inh -1.0% and FEN1 inh -2.2%.
For CC(=O)c1ccc(NC(=O)c2ccc(NC(=O)c3ccco3)cc2)cc1 the results were GCN5L2 inh inconclusive and FEN1 inh inconclusive.
For CC(=O)OC(C=C(C)C)C/C(C)=C/COc1c2ccoc2cc2oc(=O)ccc12 (configuration not stated) the results were FEN1 inh -17.5%.
For CCCn1c(=O)c2[nH]c(-c3ccccc3)nc2n(CCC)c1=O the results were GCN5L2 inh -17.2%&-13.1%.
CC(C)n1c(NCCc2ccccc2)nc2c1c(=O)n(C)c(=O)n2C was read as GCN5L2 inh -3.1% and FEN1 inh 7.3%.
Screening O=C(O)c1ccc2c(c1)C(=O)N(c1cccc(S(=O)(=O)Nc3cccc(C(F)(F)F)c3)c1)C2=O returned GCN5L2 inh -8.1% and FEN1 inh -11.5%.
For Cc1cccc(C(=O)N/N=C/c2coc3ccccc3c2=O)c1 the results were GCN5L2 inh -1.9% and FEN1 inh 15.9%.
Cc1ccc(C2(c3ccccc3)NC(=O)N(CC(=O)NCc3ccco3)C2=O)cc1C (configuration not stated) was read as GCN5L2 inh -12.5% and FEN1 inh -15.9%.
Cc1noc(C)c1C(=O)NC(C)C12CC3CC(CC(C3)C1)C2 (configuration not stated) was read as GCN5L2 inh 0.3% and FEN1 inh -4.3%.
`CCOC(=O)C1(Cc2cccc(OC)c2)CCN(Cc2ccc3c(c2)OCCO3)CC1` gave GCN5L2 inh -8.6% and FEN1 inh -6.6%.
`CC1Cc2ccccc2N1S(=O)(=O)c1cccc(C(=O)N2CC(=O)Nc3ccccc32)c1` (configuration not stated) gave GCN5L2 inh -14.1% and FEN1 inh -8.4%.
O=[N+]([O-])c1ccc2nc[nH]c2c1 was read as FEN1 inh 12.3%&3.9%.
`CCO/C=C1\N=C(c2ccc(F)cc2)OC1=O` gave GCN5L2 inh 6.3% and FEN1 inh 1.0%.
Screening COc1ccc([N+](=O)[O-])cc1NC(=O)CCN1CCN(c2ccccc2)CC1 returned GCN5L2 inh -1.3% and FEN1 inh 8.6%.
For Cc1cccc(-n2ccnc2SCC(=O)Nc2nccs2)c1 the results were GCN5L2 inh 0.5% and FEN1 inh 25.1%.
`Cc1ccc(Oc2ccccc2NC(=O)C2=COCCO2)cc1` gave GCN5L2 inh 0.8% and FEN1 inh -10.9%.
For O=C(O)c1ccc(-n2cncn2)c([N+](=O)[O-])c1 the results were GCN5L2 inh -4.6% and FEN1 inh -0.5%.
O=c1nccc(Nc2ccccc2)[nH]1 was read as GCN5L2 inh -0.1% and FEN1 inh -5.1%.
Screening CCOC(=O)c1c[nH]c(=S)n(-c2ccccc2)c1=O returned GCN5L2 inh -1.1% and FEN1 inh 18.9%.
For O=C(Cn1cnc2c(NCc3ccccc3)ncnc21)NCCN1CCOCC1 the results were GCN5L2 inh 1.7% and FEN1 inh 7.9%.
For CCC(Nc1ccc(-c2nc(-c3ccco3)no2)cc1[N+](=O)[O-])c1ccccc1 (configuration not stated) the results were GCN5L2 inh -9.4% and FEN1 inh -1.6%.
c1ccc(OCCn2c(COc3ccccc3)nc3ccccc32)cc1 was read as GCN5L2 inh -3.4% and FEN1 inh inconclusive.
O=C(Cn1cccc1C(=O)c1ccccc1)NCCN1CCOCC1 was read as GCN5L2 inh -0.7% and FEN1 inh 9.4%.
`CCNc1nc(NCC)n2c(SCC(=O)c3ccccc3F)nnc2n1` gave GCN5L2 inh -12.3% and FEN1 inh -24.5%.

Gathered by group, those above containing a thiophene ring, fused or not
For CCOC(=O)c1sc2nccc(N(C)C)c2c1N=CN(C)C the results were GCN5L2 inh -9.0% and FEN1 inh -4.9%.
CCS(=O)(=O)N1N=C(c2cccs2)CC1c1cc2cc(C)ccc2nc1Cl (configuration not stated) was read as GCN5L2 inh 0.0% and FEN1 inh 8.4%.
For CCCOc1ccc(CNC(=O)C(NS(=O)(=O)c2cccs2)C(C)C)cc1 (configuration not stated) the results were GCN5L2 inh -3.9% and FEN1 inh 16.9%.
For O=C1NC(c2ccncc2)C(C(=O)c2cccs2)C(O)(C(F)(F)F)N1 (configuration not stated) the results were GCN5L2 inh -11.6% and FEN1 inh -3.5%.

High-throughput results (PubChem)
